CBX7 AlphaScr: blocks human CBX7 binding to H3K27me3 peptide. O95931. AlphaScreen His6-CBX7 / biotin-H3K27me3 peptide binding; hits give low values. normalised signal (fraction of DMSO) (no concentration beside the values). hit rate 1.1% among 66,000. AID 1224903; in the data active = normalised signal below about 0.5;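 also: 100 nL library stock added to about 20 µL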
Target sequence (O95931 whole entry, looked up): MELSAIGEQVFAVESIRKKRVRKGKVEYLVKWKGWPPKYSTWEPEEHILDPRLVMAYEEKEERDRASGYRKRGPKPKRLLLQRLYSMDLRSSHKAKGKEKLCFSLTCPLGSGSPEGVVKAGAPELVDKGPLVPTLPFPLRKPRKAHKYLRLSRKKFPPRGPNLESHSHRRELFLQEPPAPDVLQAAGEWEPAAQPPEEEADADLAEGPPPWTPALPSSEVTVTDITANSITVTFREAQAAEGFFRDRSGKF
CBX7 AlphaScr z-score: also measured in CBX7 AlphaScr; calls as there; z-score; measured here: z-score of CBX7 signal; some inactives read as strong as hits; reference of the scale not given here;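 same signal on another scale; lower means less binding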
Numbers without * were called inactive. These rows are one share of the data; rates above refer to the full screens.

The opening two compounds, ahead of the listing:
Results follow in this order: CBX7 AlphaScr z-score, CBX7 AlphaScr
CCOCCCNC(=O)c1ccc2nc(N3CCOCC3)sc2c1
 : 1.3, 1
NC(=O)C1CCN(C(=O)c2cc3c(s2)-c2ccccc2OC3)CC1
 : 1, 1

All compounds of this part, previewed entries included:
Results follow in this order: CBX7 AlphaScr z-score, CBX7 AlphaScr
CCOCCCNC(=O)c1ccc2nc(N3CCOCC3)sc2c1
 : 1.3, 1
NC(=O)C1CCN(C(=O)c2cc3c(s2)-c2ccccc2OC3)CC1
 : 1, 1
Cc1c(C(=O)NCC2CCCO2)oc2ccc(S(=O)(=O)N3CCOCC3)cc12 (configuration not stated)
 : 1.8, 1.1
Cc1ccc(CCNC(=O)CCCC2=NS(=O)(=O)c3ccccc3N2)cc1
 : -2, 0.87
O=C(NCCCN1CCN(C2CCCCC2)CC1)c1ccc2nc(N3CCOCC3)sc2c1
 : 2.3, 1.2
CCOC(=O)c1cc(-c2ccccc2)n(CCC(=O)N2CCN(c3ccccc3OC)CC2)c1C
 : -4.1, 0.85
Cc1ccccc1Cc1c(C)nc2nc(SCC(=O)NCCc3ccccc3)nn2c1C
 : 2.3, 1.2
COc1ccc(OCCCCc2c(C)n[nH]c2C)cc1
 : 0.034, 1
COc1ccc(N2C(=O)CC(NCCc3cccc(OC)c3)C2=O)cc1 (configuration not stated)
 : 3.7, 1.1
Cc1ccccc1OCc1nnc(SCC(=O)NCC(=O)c2ccccc2)o1
 : 1.6, 1.1
CCOc1ccc(N2C(=O)CC(NCCc3ccccc3F)C2=O)cc1 (configuration not stated)
 : -1.4, 0.95
Cc1ccc(C(=O)CSc2nc3nc(C)cc(C)c3c(=O)[nH]2)cc1
 : 1.4, 1
COc1ccc(NC(=O)CC2C(=O)N(c3ccccc3)C(=O)N2Cc2cccs2)cc1 (configuration not stated)
 : 0.71, 1
O=C(Cc1ccc(F)cc1)Nc1nc(-c2ccc(F)c(F)c2)cs1
 : 1.4, 1.1
Cc1ccc(CCN2CC(C(=O)NC3CCCC3)CC2=O)cc1 (configuration not stated)
 : 1, 1.1
Cc1cc(C)cc(NC(=O)c2sc3ncn(CC(=O)N4CCCC(C)C4)c(=O)c3c2C)c1 (configuration not stated)
 : 2.2, 1.1
Cc1noc(C)c1S(=O)(=O)N(CC(=O)Nc1ccc(Cl)cc1)c1ccc(C(C)C)cc1
 : 0.24, 1
Cn1c(=O)c(=O)n(C)c2cc(S(=O)(=O)N3CCCC3C(=O)Nc3ccccc3F)ccc21 (configuration not stated)
 : 1.8, 1.2
CCOC(=O)c1sc(NC(=O)c2cccc(OC)c2)nc1-c1ccccc1
 : -1.2, 0.89
COc1ccc(S(=O)(=O)NCCc2c(C)[nH]c3ccc(F)cc23)cc1OC
 : -0.03, 1

(continued)
Results follow in this order: CBX7 AlphaScr z-score, CBX7 AlphaScr
COc1cccc(-c2nn(C)c3sc(C(=O)NC4CCCC4)cc23)c1
 : -1, 0.96
CCc1cccc(NC(=O)CCc2c(C)nc3cc(-c4ccc(OC)cc4OC)nn3c2C)c1
 : 0.23, 1
COc1cccc(NS(=O)(=O)c2ccc3[nH]cc(C(=O)NCc4cccnc4)c(=O)c3c2)c1
 : -0.8, 0.94
CCc1ccc2oc(-c3cccc(N)c3)nc2c1
 : -0.19, 0.99
O=C(NCc1ccc(F)cc1)c1ccc2c(c1)N(Cc1ccc(F)cc1)CCS2
 : -0.34, 0.94
CCN(CC)c1cc(C)c2cc(NC(=O)COc3ccc(Cl)cc3Cl)ccc2n1
 : 1.9, 1.2
COc1cc(CNc2ccc3[nH]c(=O)[nH]c3c2)ccc1OCc1cccs1
 : -2.1, 0.81
Cc1ccccc1NC(=O)CC1Oc2ccccc2NC1=O (configuration not stated)
 : -1.1, 0.94
O=C(Nc1ccccc1Cl)C1CCN(c2nnc(-n3cccc3)s2)CC1
 : -2.5, 0.85
Cc1ccnc(NC(=O)Nc2ccc(F)cc2)c1
 : -0.062, 0.98
O=C(Nc1cccc(C(F)(F)F)c1)c1cc(-c2ccc(Cl)c(Cl)c2)on1
 : 0.81, 1.1
Cc1ccc(NC(=O)CSc2nccn2-c2cccc(C)c2C)cc1Cl
 : -0.14, 0.86
CCC1CCCCN1CCCNC(=O)c1cnc(Nc2ccc(F)cc2)c2ccccc12 (configuration not stated)
 : 1.4, 1.2
CCCn1c(COc2ccc(Cl)cc2Cl)nc2ccccc21
 : 1.5, 1
CCOC(=O)C1CCN(c2c(NCc3ccc(C(=O)O)cc3)c(=O)c2=O)CC1
 : -3.6, 0.88
COc1ccc(CCn2c(=O)c3cccnc3n(Cc3ccc(C)cc3)c2=O)cc1OC
 : 0.001, 1
CCS(=O)(=O)N1CCCC(C(=O)NCCc2ccc(Cl)cc2)C1 (configuration not stated)
 : 1.6, 1
CCCC1CCC(c2ccc(-c3noc(-c4ccc(O)cc4)n3)cc2)CC1 (configuration not stated)
 : -0.15, 0.88
COc1ccc(Nc2nnc(-c3ccc(C)c(S(=O)(=O)N4CCOCC4)c3)c3ccccc23)cc1
 : -1.3, 0.88
COc1cccc(-n2ccnc2SCC(=O)Nc2ccc(OC(F)(F)F)cc2)c1
 : -0.093, 0.99

The listing continues:
Results follow in this order: CBX7 AlphaScr z-score, CBX7 AlphaScr
Cc1oc(-c2cccc(Cl)c2)nc1CS(=O)(=O)CC(=O)NCc1ccccc1
 : 1.1, 1
CCOC(=O)c1cnc2c(Cl)cccc2c1Nc1ccc(OCC)cc1
 : -1, 0.91
Nc1ccc(Nc2nc(-c3ccncc3)cs2)cc1
 : -6.3, 0.68
O=C(c1cc2cc(Br)ccc2o1)N1CCc2c([nH]c3ccccc23)C1
 : 0.72, 1
Cc1ccc(NC(=O)c2oc3ccc(S(=O)(=O)N(C)C4CCCCC4)cc3c2C)cc1C
 : 1.1, 1
Cc1ccc(-c2nnc(Nc3cccc(O)c3)c3ccccc23)cc1
 : -11*, 0.42*
CCOC(CNC(=O)CN1C(=O)COc2ccc(S(=O)(=O)N3CCOCC3)cc21)OCC
 : -0.24, 0.99
CCc1ccc(OCC(=O)Nc2c(C(=O)c3ccc(OC)cc3)oc3ccccc23)cc1
 : 0.1, 1
COc1ccc(CCN2C(=O)CCC2(C)C(=O)NCc2cccnc2)cc1OC (configuration not stated)
 : 0.81, 1
Cc1csc(-c2cc3ccc(OCc4c(F)cccc4Cl)cc3oc2=O)n1
 : 26, 1.9
COc1cccc(NS(=O)(=O)c2ccc3[nH]cc(C(=O)N(CC(C)C)CC(C)C)c(=O)c3c2)c1
 : -0.84, 0.87
O=C(NCC1COc2ccccc2O1)C1CCN(S(=O)(=O)c2cccnc2)CC1 (configuration not stated)
 : 0.38, 1
CCOc1ccc2nc(NC(=O)C3CCCN(S(=O)(=O)c4c(C)noc4C)C3)sc2c1 (configuration not stated)
 : -0.51, 0.97
Cc1ccc(NC(=O)C2(N(Cc3ccccc3)C(=O)Cc3nc(N)n[nH]3)CCCCC2)cc1
 : -8.1, 0.55
CCc1ccc(-c2nc(CN3CCCC(C(=O)NC4CCCc5ccccc54)C3)c(C)o2)cc1 (configuration not stated)
 : -3.1, 0.89
COc1ccc(-c2nc3cc(NC(=O)COc4ccc(C(C)(C)C)cc4)ccc3o2)cc1OC
 : -1.9, 0.95
CCC1Oc2ccc(Cl)cc2N(CC(=O)NC2CCCC(C)C2C)C1=O (configuration not stated)
 : 0.93, 1.5
COc1ccccc1-n1nc(C(=O)Nc2ccc(C(C)C)cc2)c2ccccc2c1=O
 : -2.5, 0.86
CC(O)Cc1nsc(NC(=O)c2ccccc2F)n1 (configuration not stated)
 : 0.96, 1.1
COc1ccccc1-n1cnc2cc(C(=O)NCCN3CCOCC3)ccc21
 : 0.1, 1

The results go on:
Results follow in this order: CBX7 AlphaScr z-score, CBX7 AlphaScr
Cc1cc2nc(Cc3ccc(Br)cc3)c(=O)[nH]c2cc1C
 : 0.94, 1
Cn1nc(-c2ccc(N3CCOCC3)c(NC(=O)c3cccs3)c2)c2ccccc2c1=O
 : -2.2, 0.92
COc1ccccc1N1CCN(Cc2nc(-c3ccc(C)cc3)no2)CC1
 : 2.7, 1.1
O=C(O)c1cc(-c2ccc(O)cc2O)nc2ccccc12
 : 0.16, 1
Clc1ccc(-c2nnc(SCc3ccc(Br)cc3)o2)c(Cl)c1
 : 0.25, 1
Cc1ccc(-c2cc(C(=O)NCCCN3CCCC3)c3ccccc3n2)cc1C
 : 1.8, 1
Cc1ccc(-c2cc(C(F)(F)F)n3nc(C(=O)Nc4ccc(Cl)c(Cl)c4)c(Cl)c3n2)cc1
 : 0.76, 1.1
COCCNC(=O)c1cn(CC(C)C)c(=O)c2c1c1ccccc1n2C
 : 1.5, 1.1
CCCCN(C)S(=O)(=O)c1ccc(C(=O)Nc2ccc(-c3nc4ccccc4[nH]3)cc2)cc1
 : -1.3, 0.94
COc1cc2c(cc1OC)C1C(C(=O)NCCCN3CCN(C)CC3)c3ccccc3C(=O)N1CC2 (configuration not stated)
 : 0.46, 1
C=CCNC(=O)c1ccc2c(c1)N(Cc1ccc(F)cc1)C(=O)CS2
 : -1.6, 0.85
C=CCNC(=O)c1cc(-c2ccccc2OC)on1
 : -0.037, 0.97
O=C(CCn1nc(-c2ccccc2)ccc1=O)NCCCN1CCC(Cc2ccccc2)CC1
 : -1.2, 0.96
CCC1=Nc2cc(C(=O)NCc3ccc(OC)cc3)ccc2Sc2ccc(Cl)cc21
 : 0.26, 1
Cc1cccc(-n2ccnc2SCC(=O)Nc2ccc(OC(F)(F)F)cc2)c1
 : -0.17, 0.83
CCOC(=O)C1CCCN(C(=O)CCC(=O)Nc2ccc3nc(N4CCC(C)CC4)cc(C)c3c2)C1 (configuration not stated)
 : 2.1, 1
Cc1noc(C)c1S(=O)(=O)N1CCN(c2ccc(Cl)cc2)CC1
 : 2.3, 1
Cc1ccc2c(c1C)NC(=O)CC2c1cc2c(cc1Br)OCO2 (configuration not stated)
 : -0.18, 0.99
COc1cc(OC)cc(C(=O)Nc2cccc(-c3nc4cc(Cl)ccc4o3)c2)c1
 : 0.011, 1
COc1ccc(-c2noc(-c3ccc(Cl)cc3)n2)cc1
 : 3.3, 1.1

(more compounds)
Results follow in this order: CBX7 AlphaScr z-score, CBX7 AlphaScr
O=C(Nc1c(-c2ccccc2)nc2ccccn12)c1ccccc1Br
 : 1.4, 1
COc1ccc(CCNC(=O)C2C3C=CC4(CN(Cc5cccs5)C(=O)C24)O3)cc1OC (configuration not stated)
 : 3, 1.2
COc1ccc(/C=C/c2nc(C)c(-c3ccccc3)c(=O)[nH]2)cc1
 : -0.14, 0.99
CN1CCN(CCCNC(=O)CCC2=NS(=O)(=O)c3ccccc3N2)CC1
 : 0.31, 1
CCOc1ccc(CCNC(=O)c2ccc3c(c2)N(Cc2ccc(Cl)cc2)CCS3)cc1
 : -0.17, 0.99
Cc1ccc(C(=O)NCCc2cc3c(C)ccc(C)c3[nH]c2=O)cc1
 : 0.23, 1
COc1ccc(CCNC(=O)c2c[nH]n3c(=O)c(Cc4ccccc4F)c(C)nc23)cc1OC
 : -0.75, 0.97
CC1CCN(S(=O)(=O)c2ccc3[nH]cc(C(=O)NCCN4CCOCC4)c(=O)c3c2)CC1
 : 1.3, 1.1
CCOC(=O)N1CCN(c2c(N3CCN(c4ccc(C)cc4)C(C)C3)c(=O)c2=O)CC1 (configuration not stated)
 : 1.2, 1
O=C(CC1Sc2ccc(C(F)(F)F)cc2NC1=O)Nc1ccccc1Cl (configuration not stated)
 : -0.7, 0.98
O=C(c1cc2c(s1)-c1ccccc1OC2)N1CCOCC1
 : 3.2, 1.1
Cc1ccc(-c2nc(Nc3ccc(C)cc3Br)c3ccccc3n2)cc1
 : 1.2, 1.1
COc1ccc(C2CC(=O)N(CC(=O)N3CCOCC3)c3ccccc3S2)cc1OC (configuration not stated)
 : 0.42, 1
Cc1ccc(N2C(=O)CC(N3CCN(c4ncccn4)CC3)C2=O)cc1Cl (configuration not stated)
 : 0.57, 1.1
COc1cccc(-c2cc(C(=O)Nc3ccc4c(c3)OCO4)no2)c1
 : -0.42, 0.98
COc1ccccc1CN1C(=O)CCC1(C)C(=O)NC1CCCC(C)C1C (configuration not stated)
 : -0.55, 0.98
Cc1nc2cc(-c3cccc(F)c3)nn2c(C)c1CCC(=O)Nc1ccc2c(c1)OCCO2
 : 0.12, 1
Cc1ccccc1N1C(=O)c2ccccc2C1Nc1ccc(Br)cc1F (configuration not stated)
 : -1.1, 0.97
O=C(O)C1C2C=CC(O2)C1C(=O)Nc1nccs1 (configuration not stated)
 : -1.5, 0.94
COC(=O)c1c(N)sc2c1CCN(C)C2
 : 0.38, 1

A different layout for 4 compounds above:
COc1ccc(CCNC(=O)C2C3C=CC4(CN(Cc5cccs5)C(=O)C24)O3)cc1OC (configuration not stated)
- CBX7 AlphaScr z-score: 3
- CBX7 AlphaScr: 1.2
COc1ccc(/C=C/c2nc(C)c(-c3ccccc3)c(=O)[nH]2)cc1
- CBX7 AlphaScr z-score: -0.14
- CBX7 AlphaScr: 0.99
CN1CCN(CCCNC(=O)CCC2=NS(=O)(=O)c3ccccc3N2)CC1
- CBX7 AlphaScr z-score: 0.31
- CBX7 AlphaScr: 1
CCOc1ccc(CCNC(=O)c2ccc3c(c2)N(Cc2ccc(Cl)cc2)CCS3)cc1
- CBX7 AlphaScr z-score: -0.17
- CBX7 AlphaScr: 0.99

(next part)
Results follow in this order: CBX7 AlphaScr z-score, CBX7 AlphaScr
CC1CCC(NC(=O)c2cc(=O)[nH]c3ccc(S(=O)(=O)N4CCCCCC4)cc23)CC1 (configuration not stated)
 : -0.013, 1
Cc1cc(=O)n2nc(N3CCC(C(=O)NC4CCCCCC4)CC3)sc2n1
 : 3.1, 1.1
COCCCNC(=O)CCC(=O)Nc1ccc2nc(N3CCOCC3)cc(C)c2c1
 : 0.05, 1
NC(=O)CSc1nc2ccccc2n1CCOc1ccc(Cl)cc1
 : 0.14, 1
COc1ccccc1CNC(=O)c1csc2c1CCCCC2
 : -0.76, 0.81
COCCn1c(SCC(=O)Nc2cc(C)cc(C)c2)nnc1-c1c[nH]c2ccccc12
 : 0.33, 1.1
COCCCNC(=O)c1ccc(NC2=NC3CS(=O)(=O)CC3S2)cc1 (configuration not stated)
 : -0.55, 0.93
Clc1ccc(Cc2nc(-c3ccccc3)no2)cc1
 : 1.8, 1.2
COC(=O)c1cccnc1-n1c(=O)c2cccnc2n(Cc2cccc(OC)c2)c1=O
 : 0.3, 1

Screening results deposited in PubChem by several laboratories.
